Resorufin autofl – resorufin region autofluorescence; Compound fluorescence, resorufin region 547/598 nm, buffer; stronger effect = higher value; max dye-equivalent concentration, M; AID 588; 0.04% of 59,000 active; active = above 10 nM dye equivalent; inconclusive = 1 to 10 nM; inactive = 1 nM or less; a few of its hits are not listed in these tables; also: highest value over a series up to 38 µM
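Intrinsic fluorescence profiled in the resorufin window (ex 547 nm, em 598 nm) after 15 min at room temperature in pH 8.0 Tris buffer (100 mM); responses normalized against a six-point resorufin standard series as dye-equivalent concentration.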
A488 autofl – compound fluoresces in the A488 spectral region. 0.1% of 59,000 active. compound autofluorescence, A488 spectral region, dye equivalency; stronger effect = higher value. max dye equivalency, M; active = above 10 nM dye equivalent; inconclusive = 1 to 10 nM; inactive = 1 nM or less; about half of its hits are not listed in these tables;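 also: highest value over a series up to 38 µM; compound alone in buffer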
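Read-out: relative fluorescence at 480/540 nm, expressed as Alexa 488 dye-equivalent concentration from a six-point A488 standard included per plate. Conditions: 100 mM Tris, pH 8.0; 15 min incubation, room temperature.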
AID923 – qHTS Assay for Allosteric/Competitive Inhibitors of Caspase-1: Spectroscopic Profiling in AFC Spectral Region. 1.1% of 75,000 active. compound fluorescence, AFC spectral region (405/520 nm); almost no hit is shown here. Potency, µM (top dose mostly 57.5 µM), inactives show at the top dose fluorescence increase, hits mostly activators; active = well fitted activation curve with a large enough effect; inconclusive = small, poorly fitted or top-dose-only effect;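 also: potency is read from the fitted curve at half-maximal effect; 0% is about no effect; scaled to a free AFC standard on each plate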
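Titrations up to 57 uM read every 20 sec for 3 min (405/520 nm) with 50 nM caspase 1 and 5 uM Ac-WEHD-AFC, pH 7.5 HEPES buffer. Fluorescence-vs-time intercept gave baseline, scaled against on-plate AFC standard.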
TSHR ag – TSH receptor (human) agonism; Potency, µM (top dose mostly 57.1 µM), inactives show top-dose activation, hits mostly activators; P16473; 0.48% of 73,000 active; HEK293-CNG-TSHR cells (CNG channel as cAMP sensor), membrane potential dye, cAMP; active = well fitted activation curve of enough size with the parental cells flat; inconclusive = any curve in the parental cells; inactive = parental cells flat and receptor cells flat or falling; also: potency is read from the fitted curve at half-maximal effect; % of control where 0% means no effect; weak receptor curves with flat parental cells got no call and are not listed
Target sequence (P16473 whole entry, looked up): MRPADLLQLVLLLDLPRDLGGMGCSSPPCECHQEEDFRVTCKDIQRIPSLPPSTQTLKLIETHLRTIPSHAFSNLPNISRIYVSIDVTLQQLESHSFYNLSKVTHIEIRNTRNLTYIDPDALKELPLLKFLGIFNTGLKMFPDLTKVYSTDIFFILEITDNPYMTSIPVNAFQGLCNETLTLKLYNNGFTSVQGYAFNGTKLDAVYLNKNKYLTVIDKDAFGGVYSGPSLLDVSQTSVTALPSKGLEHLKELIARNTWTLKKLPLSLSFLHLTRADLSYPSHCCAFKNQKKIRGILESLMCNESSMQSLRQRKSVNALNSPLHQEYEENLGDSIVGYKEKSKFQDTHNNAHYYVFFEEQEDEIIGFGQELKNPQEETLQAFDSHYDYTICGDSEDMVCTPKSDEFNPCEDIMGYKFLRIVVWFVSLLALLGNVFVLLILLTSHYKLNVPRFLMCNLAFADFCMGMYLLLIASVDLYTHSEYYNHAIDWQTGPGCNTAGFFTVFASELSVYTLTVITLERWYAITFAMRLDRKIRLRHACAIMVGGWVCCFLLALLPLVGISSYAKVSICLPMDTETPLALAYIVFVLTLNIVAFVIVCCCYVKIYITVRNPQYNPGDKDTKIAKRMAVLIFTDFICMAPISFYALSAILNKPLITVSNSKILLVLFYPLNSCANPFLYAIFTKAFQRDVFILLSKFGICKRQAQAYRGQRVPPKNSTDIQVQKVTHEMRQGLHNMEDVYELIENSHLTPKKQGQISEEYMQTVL
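HEK 293 cells stably expressing TSHR and a cAMP-gated CNG channel; parental CNG-only cells as counterscreen. Cells preloaded 60 min with membrane potential dye plus 100 uM RO 20-1724, then compound 30 min; fluorescence read at 590 nm.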
A647 fluor – A647 region autofluorescence | 59,000 tested, under 10 active | max dye-equivalent concentration, M | Compound fluorescence, A647 channel (570/671 nm), Tris buffer | AID 592; active means above 1 µM dye equivalent; inconclusive means 0.1 to 1 µM; inactive means 0.1 µM or less;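 also: values scaled relative to a standard on each plate; highest value over a series up to 38 µM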
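Compounds pinned into 100 mM Tris pH 8.0, 15 min at room temperature, then read with 570 nm excitation/671 nm emission filters. Fluorescence normalized to an on-plate six-point Alexa 647 standard curve, giving dye-equivalent concentration per compound concentration.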
An asterisk follows results filed as active; i = inactive; ? = inconclusive; nt = not tested or not shown; & = joins results of further samples; [ ] = dose if it differs, or a comment.

Start of the listing, in advance:
SMILES	Resorufin autofl	A488 autofl	AID923	TSHR ag	A647 fluor
Cc1ccc(-c2nnn(CC(=O)N(CC(=O)NCc3ccccc3)c3cccc(C)c3C)n2)o1	i	i	1.0%	-35%[inhibitor]	4.3e-08
CCOC(=O)c1oc2ccccc2c1CSc1nnnn1-c1ccc(OC)cc1	i	i	-0.6%	?	1e-09
CCn1c(SCc2ccc(OC)cc2)nnc1-c1ccncc1	i	i	2.3%	?	1e-09
Oc1cc(O)cc(/C=C\c2ccc(O)c(O)c2)c1	i	i	10.0%	2%	1e-09

The listing, previewed entries included:
SMILES	Resorufin autofl	A488 autofl	AID923	TSHR ag	A647 fluor
Cc1ccc(-c2nnn(CC(=O)N(CC(=O)NCc3ccccc3)c3cccc(C)c3C)n2)o1	i	i	1.0%	-35%[inhibitor]	4.3e-08
CCOC(=O)c1oc2ccccc2c1CSc1nnnn1-c1ccc(OC)cc1	i	i	-0.6%	?	1e-09
CCn1c(SCc2ccc(OC)cc2)nnc1-c1ccncc1	i	i	2.3%	?	1e-09
Oc1cc(O)cc(/C=C\c2ccc(O)c(O)c2)c1	i	i	10.0%	2%	1e-09
O=c1c2[nH]c3cccc(Cl)c3c2ncn1Cc1ccncc1	i	i	3.0%	-3%	1e-09
CCN(CC)C(=O)CSc1nsc(SCC(=O)N(CC)CC)c1C#N	nt	nt	-1.6%	1%	nt
O=C(NCc1cccs1)C1CC(=O)N(C2CCCC2)C1 (stereo not given)	i	i	-0.7%	-3%	1e-09
CCOCCCn1c(=S)[nH]c2cc(C(=O)N3CCOCC3)ccc2c1=O	i	i	-0.6%	-2%	1.9e-08
CC1CCCCC1NC(=O)COc1ccc(-n2cnnn2)cc1 (stereo not given)	i	i	-2.1%	6%	3.9e-08
Cc1nc(N2CCN(C)CC2)[nH]c(=O)c1Cc1cccc2ccccc12	i	i	1.6%	-38%[inhibitor]	1.8e-08
Cc1ccc(OCc2nc(C#N)c(NCc3ccc4c(c3)OCO4)o2)cc1	i	i	2.3%	?	1e-09
CCC(=O)NC(C)c1nc2ccccc2n1C (stereo not given)	i	i	-0.9%	-2%[11.4 µM]	5.2e-09
CC(C)NS(=O)(=O)c1ccc(OCC(N)=O)c(Cl)c1	i	i	0.6%	-5%	4.1e-08
Cc1cc(NCCNC2=CC(=O)CCC2)nc2ccccc12	i	i	nt	nt	5.7e-08
CCCCOc1ccc(C(=O)NCCCC(=O)N2CCCCC2)cc1	nt	nt	2.6%	16%	nt
CSc1cccc(NS(=O)(=O)c2cccs2)c1	i	i	-3.0%	1%	1e-09
C=CCc1c(C)nc2c(C(=O)O)cnn2c1C	i	i	-2.6%	nt	1e-09
CN1CCN(c2nc(-c3cccc(C#N)c3)nc3ccccc23)CC1	i	i	-1.1%	nt	1e-09
Cc1sc2ncn(CC(=O)NCc3ccccn3)c(=O)c2c1S(=O)(=O)N1CCOCC1	i	i	-1.4%	-2%	4.6e-08
Nc1nncn1C(=O)CCc1ccccc1	i	i	2.2%	1%	1e-09

(list continues)
SMILES	Resorufin autofl	A488 autofl	AID923	TSHR ag	A647 fluor
CCCCC(c1nnnn1C1CCCC1)N1CCN(C(=O)c2ccco2)CC1 (stereo not given)	i	i	-0.6%	?	1e-09
CCN1CCCC1CNC(=O)CN1C(=O)COc2ccc(C)cc21 (stereo not given)	nt	nt	-2.7%	14%	nt
Cc1cc2oc(=O)cc(COC(=O)c3cccc(N(C)C)c3)c2cc1C	i	i	0.3%	5%[11.4 µM]	1e-09
CCOC(=O)c1cn(CC(=O)Nc2ccc(C)cc2)nn1	i	i	0.9%	-3%	3.3e-08
Cc1cc(N2CCC(C)CC2)nc(-n2nc(C)cc2C)n1	nt	nt	-0.8%	22%	nt
Cc1cc2c(c(=O)o1)[C@@H](O)[C@H]1O[C@@H]1C2=O	nt	nt	-0.2%[11.5 µM]	0%[11.4 µM]	nt
O=C(Nn1c(=S)[nH]c2ccccc2c1=O)c1ccncc1	nt	nt	0.9%	-3%	nt
Cc1cccc(NC(=O)NCC(c2cccnc2)N2CCOCC2)c1 (stereo not given)	i	i	-1.2%	-1%	3.3e-09
CCC(C)NC(=O)c1n[nH]c(=O)c2ccccc12 (stereo not given)	i	i	-0.2%	9%	1.2e-09
O=C(Nc1ccncc1)Nc1ccc(F)cc1F	i	i	0.4%	0%	1.1e-08
Cc1ccc(-c2nnn(CC(=O)N(Cc3cccs3)C(C(=O)NC3CCCC3)c3ccco3)n2)o1 (stereo not given)	i	i	3.2%	?	2.5e-08
CCc1ccc(CCC(=O)Nc2ccc(S(N)(=O)=O)cc2)o1	i	i	-0.3%	-5%	1.3e-08
Cc1c(N)cccc1[N+](=O)[O-]	nt	nt	0.8%	3%	nt
Cc1noc(C)c1S(=O)(=O)N1CCC2(CC1)OCCO2	i	i	-0.3%	4%	1e-09
CCN(CCNC(=O)c1cc(C)nn1-c1ccccc1)c1ccccc1	nt	nt	2.5%	29%	nt
Brc1cccc(-c2nnc(SCc3nc4ccccc4[nH]3)o2)c1	i	i	4.2%	20%	5.5e-09
Cc1nn(-c2ccccc2)c2sc(C(=O)OCn3nnc4ccccc4c3=O)cc12	i	i	-1.3%	4%	7.6e-09
Nc1ccc(-c2nc3ccccc3[nH]2)cc1	nt	nt	-2.5%	-12%	nt
CCn1c(SCc2nc(-c3cccs3)no2)nnc1-c1c[nH]c2ccccc12	i	i	-0.4%	?	3.6e-09
CCOC(=O)C1C(=O)C=C(c2ccc(OC)cc2)CC1c1ccco1 (stereo not given)	i	i	6.1%	?	9.5e-09

(cont.)
SMILES	Resorufin autofl	A488 autofl	AID923	TSHR ag	A647 fluor
CCn1c(=O)cc(SCC(=O)Nc2ccc3c(c2)OCCO3)c2ccccc21	i	i	0.5%	9%	3.7e-08
Cc1cc(C)c2cc(CN(Cc3ccc4c(c3)OCO4)Cc3nnnn3Cc3ccco3)c(=O)[nH]c2c1	i	i	6.6%	?	2.9e-08
CC1Cc2cc(/C(O)=C3\C(=O)C(=O)N(CCN4CCOCC4)C3c3ccccc3F)ccc2O1 (stereo not given)	i	i	4.7%	8%	2.5e-08
COC(=O)c1c(C(=O)OC)n(CCCN)c2ccc(C)cc12	i	i	-0.2%	8%	1e-09
COc1ccc(NC(=O)[C@H](CCS(C)(=O)=O)N2Cc3ccccc3C2=O)c(OC)c1	nt	nt	0.9%	-3%	nt
CCCCC(c1nnnn1CC1CCCO1)N1CCN(c2cccc(C)c2C)CC1 (stereo not given)	i	i	0.4%	?	9.2e-09
Cc1ccc2nsnc2c1S(=O)(=O)N1CCN(Cc2ccc3c(c2)OCO3)CC1	i	i	-1.1%	17%	1e-09
COC(=O)C1(C)Nc2ccccc2C(=O)N1c1ccccc1OC (stereo not given)	nt	nt	1.9%	?	nt
COc1ccc(COC(=O)c2nc3nc(C)cc(C)n3n2)cc1F	i	i	-1.3%	3%	6.2e-08
CCN(C(=O)COc1cc(=O)n(CC)c2ccccc12)c1cc(Cl)ccc1OC	nt	nt	1.2%	?	nt
Cc1ccc(-n2nc3c(c2NC(=O)c2ccc(Br)o2)CSC3)c(C)c1	i	i	0.5%	7%	1.6e-09
Cc1ccc(-n2cnnn2)c(S(=O)(=O)N2CCOCC2)c1	i	i	-2.3%	-4%	3.8e-08
COC(=O)CSc1nnc(-c2ccccn2)n1Cc1ccco1	i	i	1.0%	nt	1e-09
Cc1cc(NC(=O)C2CCC2)n(-c2ccccn2)n1	i	i	-0.9%	6%	1e-09
O=C(CN(c1ccc2c(c1)OCCO2)S(=O)(=O)c1ccccc1)NCc1ccco1	i	i	-0.2%	25µM*	1.9e-08
COc1cccc(C2NC(C(=O)O)CCC2C)c1 (stereo not given)	nt	nt	-0.8%[11.5 µM]	2%[11.4 µM]	nt
CS(=O)(=O)OCCCCOS(C)(=O)=O	nt	nt	-0.6%&1.5%	9%	nt
Cc1ccc2cc3cc(C(=O)NCc4ccc5c(c4)OCO5)oc3nc2c1	i	i	0.2%	-5%	1.3e-08
CC1(C)SC2[C@H](NC(=O)C(NC(=O)N3CCNC3=O)c3ccccc3)C(=O)N2C1C(=O)O (stereo not given in full)	i	i	nt	nt	1e-09
Cc1sc2nc(SCC(=O)N(C)C)[nH]c(=O)c2c1C	i	i	-0.2%	-5%	1.7e-08

Next part
SMILES	Resorufin autofl	A488 autofl	AID923	TSHR ag	A647 fluor
COc1cc(NS(=O)(=O)c2ccccc2)ccc1-n1nc(C)cc1C	i	i	-0.6%	3%	1.2e-08
Cc1ccc2cc(C(c3nnnn3Cc3ccccc3)N3CCN(c4ccccc4)CC3)c(=O)[nH]c2c1 (stereo not given)	i	i	1.0%	12%	6.5e-09
COc1cccc(Cn2c(-c3cccs3)noc2=O)c1	i	i	0.1%	15%	2.5e-08
Cc1cc(-c2nnc3n2N=C(C(C)(C)C)CS3)n[nH]1	i	i	1.0%	0%	3.2e-08
CC1=CCC2C(=O)N(c3ccc(C)c(Br)c3)C(=O)C2C1 (stereo not given)	nt	nt	2.0%	10%	nt
O=C(c1ccc(Br)s1)N1CCN(c2ncccn2)CC1	i	i	-0.6%	-4%	6.9e-09
Cn1c(=O)c2c(ncn2CC(O)CO)n(C)c1=O (stereo not given)	i	i	-3.3%	nt	1e-09
O=C(CCN1C(=O)CSC1=O)Nc1ccccc1	i	i	-1.0%	?	1e-09
Fc1cccc(CSc2ncnc3c2oc2ccccc23)c1	i	i	0.8%	?	3.6e-09
CC(=O)Nc1nc2ccccc2n1CCOc1ccccc1Cl	i	i	1.4%	9%	8.5e-09
COc1ccc(F)cc1S(=O)(=O)Nc1ccc2c(c1)OCO2	i	i	1.1%	-11%	3.8e-08
COc1cccc(NC(=O)N2CCN(c3cccc(C)c3)C(C)C2)c1 (stereo not given)	i	i	-0.3%	1%[11.4 µM]	4.2e-08
Cc1ccc2cccc(S(=O)(=O)N3CCN(c4ccccc4F)CC3)c2n1	i	i	2.0%	?	1e-09
CC(c1ccco1)N(Cc1ccco1)C(=O)Nc1ccccc1 (stereo not given)	i	i	-0.4%	?	1e-09
C=Cc1cccc(NC(=O)COc2ccccc2)c1	i	i	-0.8%	24%	6.6e-08
COc1ccccc1CNC(=O)CCS(=O)(=O)c1ccc2c(c1)CCCN2C(C)=O	i	i	-0.9%	?	7.2e-09
CC(NC(=O)NC12CC3CC(CC(C3)C1)C2)C1CCCO1 (stereo not given)	i	i	-0.5%	18%	1e-09
COc1nc(OCCNC(=O)Nc2ccccc2)nc(N(C)C)n1	i	i	0.4%	4%	3.2e-08
Cc1nc2ccc(S(=O)(=O)NC(CC(C)C)C(=O)O)cc2s1 (stereo not given)	i	i	0.2%	8%	2.2e-08
COC(=O)c1ccc(CSc2ccc3nnc(-c4ccccn4)n3n2)o1	nt	nt	-1.4%	-3%	nt

(further entries)
SMILES	Resorufin autofl	A488 autofl	AID923	TSHR ag	A647 fluor
O=C(CCN1CCCCC1)c1ccc2c(c1)OCCO2	i	i	-1.6%	1%	2.1e-09
COCCNC(=O)CS(=O)Cc1nc(-c2ccccc2C)oc1C (stereo not given)	nt	nt	-1.8%	2%	nt
Cn1c(=O)c2c(SCC(=O)NCC3CCCO3)nc(-c3cccs3)nc2n(C)c1=O (stereo not given)	nt	nt	-1.8%	-2%	nt
O=C(OCCNC(=O)c1cc2ccccc2oc1=O)c1cccnc1	i	i	-1.9%	3%	2.7e-09
Fc1ccc2[nH]c3c(N4CCSCC4)ncnc3c2c1	i	i	-0.2%	?	8.7e-09
O=C(NC1CC2CCC(C1)N2Cc1nnnn1Cc1ccco1)NC12CC3CC(CC(C3)C1)C2 (stereo not given)	i	i	1.7%	6%	8.9e-09

Assay outcomes as filed in PubChem.

These rows are one share of the data, so the mix of outcomes need not match the whole.
